AF4-AF9 inh = inhibitors of human MLL-AF4/AF9 interaction; AlphaScreen, biotin-AF4 peptide binding to FLAG-AF9; inhibition, % at 10 µM; actives 0.47% (n = 350,000);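 active = every replicate reaching a set inhibition limit, whatever the replicate mean, cut at about 25% in these data; inconclusive = mean inhibition reaches that limit but some replicates miss it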;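 also: 0% = plate neutral control median and 100% = total signal loss; the record names both 10 and 1 µM as test concentration; the first replicate is given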
Target sequence (P42568 whole entry, looked up): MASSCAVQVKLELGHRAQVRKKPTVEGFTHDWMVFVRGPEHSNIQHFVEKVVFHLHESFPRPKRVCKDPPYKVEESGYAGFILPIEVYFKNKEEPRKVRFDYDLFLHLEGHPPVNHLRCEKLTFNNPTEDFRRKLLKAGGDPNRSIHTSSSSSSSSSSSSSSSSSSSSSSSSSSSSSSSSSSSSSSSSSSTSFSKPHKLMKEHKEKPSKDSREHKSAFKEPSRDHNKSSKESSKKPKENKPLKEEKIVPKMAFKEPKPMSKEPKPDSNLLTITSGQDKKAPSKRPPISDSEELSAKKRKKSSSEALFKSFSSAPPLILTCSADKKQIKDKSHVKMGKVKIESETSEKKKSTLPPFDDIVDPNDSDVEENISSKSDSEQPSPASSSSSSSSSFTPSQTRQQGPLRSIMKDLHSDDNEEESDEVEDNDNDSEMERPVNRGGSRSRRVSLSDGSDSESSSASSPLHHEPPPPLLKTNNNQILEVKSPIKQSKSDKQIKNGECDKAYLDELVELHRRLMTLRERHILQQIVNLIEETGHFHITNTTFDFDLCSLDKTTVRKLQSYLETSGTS
Bfl-1 A1 inh = inhibitors of the anti-apoptotic protein A1, read as caspase activation | caspase activation, % (test concentration not listed) | AID 2462 | actives 0.066% (n = 330,000) | MEF A1-2A-BIM cells, Caspase-Glo 3/7 luminescence, 3 h; percent of clofoctol response, vehicle zero;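 active = over half of replicate activation scores above 10%, or exactly half above 10 with the replicate mean above 10; inconclusive = replicate mean below 10 yet half the replicates above 10; inactive = over half of replicates below 10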;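 also: wells of about 30 µL received 50 nL stock; many hits fall short of the cut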
RanGTP-Imp inh = inhibitors of RanGTP-importin-beta interaction, primary screen, biochemical, FRET, CFP-Ran, YFP-importin-beta, homogeneous. cell-free CFP-Ran/YFP-importin-beta FRET ratio. inhibition, % (test concentration not listed). actives 1.1% (n = 300,000). AID 2216;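 active = most replicates above 15%; inconclusive = exactly half above 15%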;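 also: 0% = DMSO wells and 100% = Ran loaded with GDP instead of GTP; wells of about 40 µL received 100 nL stock; the first replicate is given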
Calb FLC = affects C. albicans growth with fluconazole | C. albicans CaCi-2 (fluconazole-resistant clinical isolate) + fluconazole, Alamar Blue growth, 48 h | AID 1979 | growth inhibition, % (concentration not given with the values) | actives 0.57% (n = 300,000);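 active = most replicates above 75%; inconclusive = exactly half above 75%; inactive = most below 75%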;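 also: all wells also contain fluconazole at 8 µg/ml as a sub-toxic cotreatment; 0% = median of DMSO wells and 100% = median of geldanamycin control wells; wells of about 8 µL received 7.5 nL stock; the first replicate is given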
Beta apoptosis = beta cell apoptosis inhibition | AID 435005 | INS-1E cytokine-induced death, ATP luminescence, 48 h; percent of positive-control rescue, neutral wells zero | protection from apoptosis, % (concentration not given with the values) | actives 0.8% (n = 300,000);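 active = all replicates at 75% or more, or half of them and the mean; inconclusive = half reach 75% but not the mean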;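 also: 0% = cytokine-treated negative control wells and 100% = positive control rescue; higher means more ATP so stronger rescue from cytokine killing; wells of about 40 µL received 100 nL stock; the first replicate is given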
rRNA inh HTS = inhibits bacterial ribosomal RNA function over humanized ribosomes | actives 1.6% (n = 350,000) | AID 720706 | E. coli WT GFP vs humanized-ribosome RFP mutants, fluorescence, 24 h; active compounds read low; DMSO median 0, no signal -100 | GFP signal change (wild-type ribosome), % (no concentration beside the values);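 active = significant combined selectivity score with lowered wild-type GFP, culture density cut under 30%, mutant RFP and density less affected; inactive = any of these conditions unmet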; also: one replicate is shown; some compounds called inactive have numbers as strong as hits
T cruzi repl = T. cruzi replication inhibition | T. cruzi beta-gal in NIH3T3, luminescence, 90 h | inhibition, % (concentration not given with the values) | actives 1.4% (n = 300,000) | AID 1885;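 active = mean inhibition across valid replicates above about 55%, limit read from the data; inconclusive = mean below that limit but half or more replicates reach it; inactive = mean below it, under half of replicates reach it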;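 also: signal also drops with host cell toxicity which is not excluded here; 0% = plate median of DMSO wells and 100% = zero luminescence signal; higher percent means less beta-gal luminescence so fewer parasites; stock transfer was 50 nL into about 50 µL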
Vif TR-FRET = inhibitors of Vif binding to APOBEC3G peptide, primary screen, biochemical, TR-FRET, GST-Vif 1-94, biotin-A3G peptide, dose response retest (AID 1117319) | inhibition, %, or IC50 in µM where a hit was titrated | TR-FRET GST-Vif / biotin-A3G peptide binding; higher % means a stronger effect; test concentration not given here; strong numbers were not always called active | actives 0.57% (n = 260,000);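 active = above the screen mean plus three standard deviations and confirmed in dose response; inconclusive = results disagree or hit not tested in dose response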;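 also: Vif residues 1-94 fused to GST binding biotinylated APOBEC3G peptide 110-148; 0% = full assay without inhibitor and 100% = GST in place of GST-Vif; retest series ran down from 100 µM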
rRNA inh HTS OD600 = also measured in rRNA inh HTS; calls as there; OD600 change, %; measured here: OD600 growth;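 optical density of the mix in the first replicate; 0 = DMSO median and -100 = no signal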
rRNA inh HTS RFP = further read-out of rRNA inh HTS, marked with its call; RFP signal change, %; measured here: RFP humanized mutant strains;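 first replicate; 0 = DMSO median and -100 = no signal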
Starred values were filed as active, the others as inactive; ? = inconclusive; nt = no result given.

SMILES	AF4-AF9 inh	Bfl-1 A1 inh	RanGTP-Imp inh	Calb FLC	Beta apoptosis	rRNA inh HTS	rRNA inh HTS OD600	rRNA inh HTS RFP	T cruzi repl	Vif TR-FRET
Cc1nnc(NCc2cccc(Cl)c2)c2ccccc12	-1.9	1.6	-2.3	-4	2	1	-28	-3.3	53	nt
Cc1ccc(S(=O)(=O)NCC(=O)OC(C(=O)c2ccccc2)c2ccccc2)cc1 (stereo not given)	nt	-0.5	4.3	-14	-4	nt	nt	nt	-26	18%
C[C@@H](NC(=O)c1ncn(C)c1C(=O)N[C@H](C)c1ccccc1)c1ccccc1	-0.8	-0.3	nt	nt	-8	-36	-57	-14	nt	nt
COC(=O)c1ccc(NC(=S)NCCCn2ccnc2)cc1	0.6	0.1	nt	1	4	6	7	1.0	-7	-6%
CCc1ccc(S(=O)(=O)NC2CC(C)(C)NC(C)(C)C2)cc1	-4.2	-0.1	-2.3	-2	-2	13	16	2.0	-1	-7%
CC1CCCN(S(=O)(=O)c2cc3c4c(c2)CCN4C(=O)CC3)C1 (stereo not given)	-1.2	0.5	-0.7	36	-6	0	-1	0.3	-4	5%
Cc1c(-n2c(SCC(=O)N(C)C3CCS(=O)(=O)C3)nc3ccccc3c2=O)c(=O)n(-c2ccccc2)n1C (stereo not given)	-1.0	0.5	5.6	-9	-8	7	0	-1.9	-9	-6%
Cc1cc(Oc2nc3c(C)cccn3c(=O)c2/C=C(\C#N)S(=O)(=O)c2ccccc2)ccc1Cl	nt	0.3	5.5	-27	8	nt	nt	nt	-17	nt
CCNc1nc(NCC)nc(N/N=C/c2ccccc2)n1	-1.1	0.4	?	3	4	-1	-4	-7.8	-13	-11%
CCCCNCc1cc(Br)c(OCC(=O)N2CCOCC2)c(OC)c1	nt	0.7	1.6	-18	-4	nt	nt	nt	13	-2%
Cc1ccc2nc(Nc3nc(CSc4nc5ccccc5s4)cc(=O)[nH]3)nc(C)c2c1	nt	-0.5	2.9	64	-5	nt	nt	nt	28	nt
Nc1ccccc1Nc1cc(-c2ccccc2)[nH]n1	23	nt	-5.4	43	nt	-24	20	-4.4	35	-9%
C=CCN(c1ccc(C(=O)Nc2cccc(C)c2)cc1)S(C)(=O)=O	-4.1	-0.3	1.5	-8	1	0	4	2.2	-27	2%
N=c1n(CCO)c2ccccc2n1Cc1ccc(Cl)cc1	nt	-0.1	4.0	-6	3	nt	nt	nt	-7	2%
CC(OC(=O)CN1C(=O)c2ccccc2C1=O)C(=O)NC1CCCCC1C (stereo not given)	1.2	0.2	0.4	nt	3	9	9	-0.8	-4	5%
CCN1CCN(Cc2c(O)ccc3c(C)cc(=O)oc23)CC1	-12	0.2	4.8	-5	-2	9	10	3.1	4	3%
O=C(NCc1ccc(F)cc1)C1CC(=O)N(C2CCCCCCC2)C1 (stereo not given)	0.1	-0.5	0.6	-3	-3	-5	-6	-3.8	7	-5%
CC1CCCCN1C(=O)c1ccc(CS(=O)(=O)Cc2ccccc2)cc1 (stereo not given)	0.6	0.4	1.5	1	1	5	-3	0.6	1	0%
CC(=O)c1ccc(NC(=O)C(C)OC(=O)c2ccc(NS(=O)(=O)c3ccc(F)c(F)c3)cc2)cc1 (stereo not given)	nt	0.0	-2.5	12	3	nt	nt	nt	7	18%
O=C(Cc1coc2ccc3ccccc3c12)NCc1cccs1	nt	-1.1	5.1	2	-4	nt	nt	nt	12	nt
O=C(O)/C=C/c1ccccc1Oc1ccc(Cl)cc1Cl	-3.5	0.7	6.2	63	-6	-8	-14	-0.7	-6	nt
Cc1csc(NC(=O)C2CCCC2)n1	nt	-0.8	0.3	-18	6	nt	nt	nt	1	13%
CC12CCC(C(=O)Nc3cc(Cl)ccc3Cl)(C/C1=N\O)C2(C)C (stereo not given)	nt	-0.5	0.0	6	-3	nt	nt	nt	11	0%
CC(Oc1ccccc1)C(=O)OCC(=O)Nc1sccc1C(N)=O (stereo not given)	7.0	0.7	nt	nt	-4	-1	-5	1.8	nt	10%
O=C(CCS(=O)(=O)c1ccc(Br)cc1)N1CCCCCC1	-20	1.2	3.4	-20	-6	-2	-7	-1.2	4	nt
CN1CCC2(CC1)N=C(c1ccc(F)cc1)C(=S)N2C(=O)c1ccc(C(C)(C)C)cc1	1.6	0.1	1.7	0	-3	5	-1	1.1	30	nt
COc1cccc(C(=O)Nc2nnc(S(=O)(=O)N3CCCC3)s2)c1	-0.2	0.8	2.1	48	1	1	-11	-2.8	6	-64%
Cc1ccc(-c2nnc(NCCCO)c3ccccc23)cc1	2.4	0.7	-2.0	17	1	-11	-9	-5.5	-5	-6%
COC(=O)c1ccc2c(c1)NC(=O)CS2	-0.9	0.9	-0.9	9	nt	16	5	1.4	-4	-1%
O=C(NCC(c1cccnc1)N1CCN(c2ccccc2F)CC1)c1ccccc1 (stereo not given)	0.0	0.6	1.4	3	-1	0	-8	-1.2	48	12%
COc1cccc(CNC(=O)COc2cc3c(c4oc(=O)cc(C)c24)CCC(C)(C)O3)c1	2.6	-0.2	-3.6	-2	7	nt	nt	nt	31	nt
O=C1CN(c2ccccc2)C(=S)N1C(=O)c1ccccc1	-1.8	-0.1	0.2	3	-10	8	11	12	-7	nt
CCCCc1nc2ccccc2c(=O)n1NC(=O)c1c(O)c2ccccc2n(C)c1=O	-3.3	0.4	nt	nt	15	4	13	0.8	-10	-6%
CCn1c(SCC(=O)c2c(N)n(C)c(=O)n(C)c2=O)nnc1-c1ccccc1	nt	0.0	2.0	3	-3	nt	nt	nt	-7	8%
CCN(CC)S(=O)(=O)c1ccc(Cl)c(NC(=S)NC(=O)C2CCCC2)c1	5.5	-1.1	nt	nt	15	-10	-37	0.4	nt	-4%
CCC1CCCCN1C(=O)COC(=O)CSc1ccc(C(N)=O)cc1[N+](=O)[O-] (stereo not given)	-1.6	-0.9	nt	nt	-1	-9	12	3.0	nt	2%
COCCN(C(=O)COC(=O)COc1ccc2c(c1)CCC2)c1c(N)n(Cc2ccccc2)c(=O)[nH]c1=O	-33	0.3	0.3	3	nt	0	-3	-0.1	0	-7%
O=C(NNC(=O)c1ccccc1[N+](=O)[O-])Nc1ccc(Cl)cc1	-11	-0.1	-3.3	3	-3	3	-3	3.3	2	8%
COc1ccccc1N(CC(=O)Nc1cc(C)on1)S(=O)(=O)c1ccc(Cl)cc1	nt	0.1	2.9	-2	3	nt	nt	nt	28	0%
COc1ccc(NC(=O)N2CCCC(C(=O)NC(C)C)C2)cc1 (stereo not given)	nt	-0.2	-2.3	0	0	nt	nt	nt	-20	3%
Cc1ccccc1NC(=O)CC1SC(=Nc2ccc(O)cc2)NC1=O (stereo not given)	2.3	1.4	0.5	-5	-4	-6	-3	-2.9	-7	nt
CCOC(=O)c1cnc2c(C(F)(F)F)cccc2c1N1CCN(C)CC1	2.3	0.8	2.7	0	7	3	13	-0.4	-3	-4%
CC(C)Cn1c(SCC(=O)NC2CCCc3ccccc32)nc(O)cc1=O (stereo not given)	nt	-1.0	-1.8	9	5	nt	nt	nt	5	3%
Cc1cc(C(C)(C)C)cc(S(=O)(=O)Nc2ccc(O)c(C(=O)O)c2)c1C	nt	-0.9	0.6	7	-5	nt	nt	nt	-17	0%
COC(=O)C12CC3CC(C1)CC(n1cnc(Cl)n1)(C3)C2	nt	0.2	0.5	-3	4	nt	nt	nt	-11	20%
CCN(CC)S(=O)(=O)c1cccc(-c2nnc(SCC(=O)NC3CCCCCC3)n2N)c1	nt	0.5	?	31	1	nt	nt	nt	-7	2%
O=C(CSc1nnc(Cc2cccs2)n1Cc1ccco1)Nc1cccc(Cl)c1	nt	-0.3	1.7	-3	-1	nt	nt	nt	36	20%
CC(Cc1ccccn1)NC(=O)CCc1nnc(C2CCCCC2)o1 (stereo not given)	-1.5	0.3	-2.8	5	-1	17	15	1.1	0	-3%
O=c1cc(-c2ccccc2)cc(-c2ccccc2)n1CCCO	-13	-0.9	4.1	6	3	-1	-3	5.2	-14	nt
O=C(O)CCc1nn2c3ccccc3n(CCN3CCCCC3)c2nc1=O	nt	nt	3.0	0	nt	nt	nt	nt	-14	7%
Following part.
SMILES	AF4-AF9 inh	Bfl-1 A1 inh	RanGTP-Imp inh	Calb FLC	Beta apoptosis	rRNA inh HTS	rRNA inh HTS OD600	rRNA inh HTS RFP	T cruzi repl	Vif TR-FRET
COc1ccc(C(=O)/C=C/c2ccc(C)cc2)c(OC(=O)c2ccc([N+](=O)[O-])cc2)c1	nt	1.5	-2.9	10	0	nt	nt	nt	0	-2%
CCc1ccc(NS(=O)(=O)c2ccc3[nH]cc(C(=O)N4CCCCC4)c(=O)c3c2)cc1	nt	0.6	-1.2	-1	-2	nt	nt	nt	-1	6%
COC(=O)c1sc(NC(=O)COc2cccc3ccccc23)nc1C	nt	0.6	2.5	-3	-3	nt	nt	nt	-8	0%
Cc1c(C)c2ccc(OCC(=O)Nc3ccccn3)c(C)c2oc1=O	-0.3	-7.0	3.2	3	-6	5	11	-0.5	-4	nt
Cc1c(O)nc(SCC(=O)Nc2cccc(C(F)(F)F)c2)n(-c2ccccc2)c1=O	0.5	1.0	-1.4	7	-3	-4	-19	-6.5	-16	nt
COc1ccc(C(CNC(=O)C(C)(C)Oc2ccc(Cl)cc2)N2CCCC2)cc1 (stereo not given)	6.1	-0.9	nt	nt	-2	nt	nt	nt	nt	0%
COc1ccc(C/C(N)=N/O)cc1	nt	-0.8	?	-2	-7	nt	nt	nt	-26	-4%
COc1ccc(N(CC(=O)NCc2ccc3c(c2)OCO3)C(=O)CCC(=O)Nc2ccccn2)cc1	-0.9	1.7	5.6	-36	-3	1	12	0.9	9	nt
COC(=O)c1ccc(NC(=O)COC(=O)c2nc3nccc(C)n3n2)cc1	-1.4	0.7	-3.0	9	nt	8	5	0.9	-11	-2%
CC1Cc2ccccc2N1S(=O)(=O)c1cccc(C(=O)OCC(=O)NCc2ccco2)c1 (stereo not given)	4.0	-0.1	-0.3	-21	1	-25	-20	18	0	nt
CC(OC(=O)Cn1[nH]c(=O)c2ccccc2c1=O)C(=O)c1ccccc1 (stereo not given)	0.3	0.5	-2.3	-5	-13	18	20	7.2	-3	1%
Cc1cc(F)ccc1S(=O)(=O)Nc1ccccc1C(=O)Nc1ncn[nH]1	nt	0.0	1.7	nt	-2	nt	nt	nt	18	-5%
Cc1ccccc1CN1C2=NCCN2c2ccccc21	nt	-0.7	3.5	0	-8	nt	nt	nt	8	17%
OCCNc1nc(-c2cccnc2)nc2ccccc12	nt	0.1	0.7	0	-8	nt	nt	nt	-27	-1%

This is a subset; the hit share may differ from the screen's.
